High-throughput results deposited in PubChem BioAssay by several laboratories.
FGF22 binding – binders of recombinant human FGF22 by thermal shift | Q9HCT0 | SYPRO orange fluorescence; percent of sucrose octasulfate shift, DMSO zero | calls only at 9.99 µM | 340,000 tested, 1.5% active;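 active = melting point raised past a set limit in the mean and every replicate; three in four hits are not shown here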
Target sequence (Q9HCT0 whole entry, looked up): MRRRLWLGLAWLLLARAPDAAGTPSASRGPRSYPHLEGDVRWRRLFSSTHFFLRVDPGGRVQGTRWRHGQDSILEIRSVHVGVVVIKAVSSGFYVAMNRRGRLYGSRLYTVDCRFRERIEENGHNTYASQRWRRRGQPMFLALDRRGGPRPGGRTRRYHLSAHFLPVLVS
HNF4A DNA FP – change in binding of human HNF4 alpha to DNA; HNF4a-FITC DNA binding, fluorescence polarization, 1 h; 360,000 tested, 0.3% active; P41235; activity change, % at 10 µM; in the data active = activity change above about 30%, passing the limit was not always enough;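 note: controls were the assay level and a saturating level of protein; the project sought stronger binding though the title names inhibitors; some compounds called inactive have numbers as strong as hits; positive values seem to mean higher polarization but the record does not say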
Target sequence (P41235 whole entry, looked up): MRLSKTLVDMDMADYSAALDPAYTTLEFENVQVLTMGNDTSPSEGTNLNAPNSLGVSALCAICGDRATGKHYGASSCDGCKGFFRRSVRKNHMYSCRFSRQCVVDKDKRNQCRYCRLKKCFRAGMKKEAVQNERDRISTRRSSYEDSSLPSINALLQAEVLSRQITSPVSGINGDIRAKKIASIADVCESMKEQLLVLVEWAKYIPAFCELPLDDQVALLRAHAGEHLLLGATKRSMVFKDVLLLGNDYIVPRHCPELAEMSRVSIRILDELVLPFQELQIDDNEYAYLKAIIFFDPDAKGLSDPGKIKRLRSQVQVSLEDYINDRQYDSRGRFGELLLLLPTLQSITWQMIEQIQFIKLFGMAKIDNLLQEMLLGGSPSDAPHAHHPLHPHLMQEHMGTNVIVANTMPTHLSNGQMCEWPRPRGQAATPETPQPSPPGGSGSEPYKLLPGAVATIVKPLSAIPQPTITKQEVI
UCH37 DUB inh – human UCH37 deubiquitinating enzyme inhibition; purified proteasome/UCH37, Ub-AMC cleavage fluorescence; Q9Y5K5; inhibition, % (no concentration beside the values); 330,000 tested, 0.33% active;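 active = mean of two replicates above 20%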;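 note: 0% = compound-free wells with enzyme and 100% = wells lacking proteasome; stock transfer was 100 nL into about 20 µL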
Target sequence (Q9Y5K5 whole entry, looked up): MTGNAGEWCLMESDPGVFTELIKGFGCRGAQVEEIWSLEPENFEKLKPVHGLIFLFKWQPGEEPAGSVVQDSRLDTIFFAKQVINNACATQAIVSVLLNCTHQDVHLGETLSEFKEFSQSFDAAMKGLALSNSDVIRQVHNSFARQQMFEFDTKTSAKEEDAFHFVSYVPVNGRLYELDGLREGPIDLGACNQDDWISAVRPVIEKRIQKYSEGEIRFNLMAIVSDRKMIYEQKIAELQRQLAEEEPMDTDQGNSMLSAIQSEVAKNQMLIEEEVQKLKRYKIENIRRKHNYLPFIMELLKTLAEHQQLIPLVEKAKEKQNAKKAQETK
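Material: Human UCH37 enzyme supplied as purified proteasome complex | Schedule: 30 min preincubation with enzyme, 25 min cleavage at room temperature | Detection: AMC fluorescence 355/460 nm | Measure: % inhibition of Ub-AMC cleavage fluorescence | Controls: Wells without proteasome as full block, compound-free enzyme plus substrate as uninhibited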
Beta2AR agonist – human beta-2 adrenergic receptor agonism by FAP. Am2.2-beta2AR cells, FAP receptor internalization, flow cytometry; reference of the scale not given here. response, % (concentration not given with the values). 340,000 tested, 0.43% active. P07550;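 active = response above a set limit, near 3 SD of response in nonfluorescent compounds, cut at about 42% in these data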;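 note: stock transfer was 100 nL into about 11 µL; a reference agonist was the positive control; negative values mostly stem from fluorescent compounds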
rRNA inh HTS – inhibits bacterial ribosomal RNA function over humanized ribosomes. AID 720706. 350,000 tested, 1.6% active. GFP signal change (wild-type ribosome), % (concentration not given with the values). E. coli WT GFP vs humanized-ribosome RFP mutants, fluorescence, 24 h; active compounds read low; DMSO median 0, no signal -100;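 active = significant combined selectivity score with lowered wild-type GFP, culture density cut under 30%, mutant RFP and density less affected; inactive = any of these conditions unmet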; note: one replicate is shown; some compounds called inactive have numbers as strong as hits
Ecoli growth – E. coli growth inhibition. OD600 absorbance (no concentration beside the values). Escherichia coli growth, OD600, 23 h; active compounds read low. 330,000 tested, 0.21% active. AID 1053175;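 active = OD600 absorbance below the run mean of sample wells minus 3.6 SD, in any replicate, cut at about 0.56 in these data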;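 note: stock transfer was 300 nL into about 60 µL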
ALR inh – blocks human ALR sulfhydryl oxidase activity | purified ALR, DTT oxidation, H2O2 HRP-luminol luminescence | P55789 | inhibition, % (no concentration beside the values) | 290,000 tested, 3.8% active | AID 485317;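 active = mean and each replicate at 75% or more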;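 note: stock transfer was 7.5 nL into about 7.5 µL; 0% = neutral wells and 100% = wells with inactivated enzyme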
rRNA inh HTS OD600 – recorded beside rRNA inh HTS, whose call it bears; OD600 change, %; measured here: OD600 growth;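 optical density of the mix in the first replicate; 0 = DMSO median and -100 = no signal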
rRNA inh HTS RFP – second read-out of rRNA inh HTS, no call of its own (marks repeat the call); RFP signal change, %; measured here: RFP humanized mutant strains;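 first replicate; 0 = DMSO median and -100 = no signal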
The depositor's hits bear a star; i = inactive; / = no result given.

SMILES | FGF22 binding | HNF4A DNA FP | UCH37 DUB inh | Beta2AR agonist | rRNA inh HTS | rRNA inh HTS OD600 | rRNA inh HTS RFP | Ecoli growth | ALR inh
C#CCOCCOCCOCCNc1nc(N2CCN(C(=O)[C@H](C(C)C)n3cc(CCO)nn3)CC2)nc(N2CCN(C(=O)[C@H]([C@@H](C)CC)n3cc(CCCN=C(N)N)nn3)CC2)n1 | i | 3.6 | 35* | -3 | 5 | 6 | 12 | / | -15
CCCCOC(C)n1cc(F)c(=O)[nH]c1=O (stereo unspecified) | i | -0.3 | 1.5 | 3 | 17 | 6 | -2.8 | 0.66 | 2
Cc1ccc(C(=O)COC(=O)c2cccc([N+](=O)[O-])c2)s1 | i | -0.7 | 0.8 | -2 | -6 | 5 | 0.4 | 0.67 | 2
Cc1c(C(=O)NCCc2ccc3c(c2)OCCO3)oc2ccccc12 | / | -0.9 | 0.6 | 0 | / | / | / | 0.68 | -7
CCCC(=O)Nc1ccc(S(=O)(=O)Nc2cc(OC)ncn2)cc1 | i | 0.7 | 5.9 | -2 | 3 | 1 | -2.5 | 0.73 | /
CCS(=O)(=O)Nc1ccc(C2=NN(C(C)=O)C(c3cccs3)C2)cc1 (stereo unspecified) | / | -3.4 | i | 1 | -1 | -9 | -1.4 | 0.71 | -3
COc1ccc(NC(=O)CCN2C(=O)C3CC=CCC3C2=O)cc1S(=O)(=O)N1CCCCC1 (stereo unspecified) | i | 1.4 | 1.6 | 7 | 1 | -1 | -2.0 | 0.65 | /
Cc1ccc(NC(=O)CSc2n[nH]c(C)c2[N+](=O)[O-])cc1C | i | -2.8 | 0.4 | 3 | 0 | 8 | -5.8 | 0.68 | 6
CCOC(=O)Cn1nnnc1CN(Cc1ccc(OC)cc1)Cc1cc2cc(CC)ccc2[nH]c1=O | i | -2.2 | -0.9 | 86* | -4 | -5 | 5.7 | 0.68 | 8
CCc1c(C)c(C#N)c2nc3ccccc3n2c1NCCCN(C)C | i | -0.1 | / | / | -5 | -3 | -1.7 | / | /
O=C(/C=C/c1ccccc1)NC(=O)c1ccccc1O | i | -1.6 | 4.9 | 1 | -2 | 2 | 7.7 | 0.67 | 5
CN1CCCC(OC(=O)c2cc(Cl)cc(Cl)c2)C1 (stereo unspecified) | i | -3.0 | 2.9 | -8 | 14 | -7 | 0.9 | 0.7 | 0
CCOc1ccc(C(=O)NCc2cccs2)cc1 | / | -1.4 | -0.1 | 0 | / | / | / | 0.67 | /
COCCNc1nnc(SCC(=O)c2ccc3c(c2)OCO3)s1 | / | 2.0 | 3.0 | 19 | / | / | / | 0.69 | /
Cc1cc(C)nc(N/C(=N\S(=O)(=O)Cc2ccccc2)Nc2ccccc2Br)n1 | / | -1.8 | 0.7 | -15 | / | / | / | 0.7 | -5
CN(C)C(CNC(C(=O)Nc1ccc(F)cc1)c1ccccc1)c1ccccc1 (stereo unspecified) | i | 3.5 | -1.6 | -5 | 3 | 7 | 1.4 | 0.67 | -3
CC(=O)Nc1ccc(S(=O)(=O)n2cnc3ccccc32)cc1 | / | -0.2 | 5.5 | 9 | / | / | / | 0.73 | -44
Nc1ccc(C(=O)N/N=C/c2cn(Cc3ccc(F)cc3)c3ccccc23)cc1 | i | -2.1 | / | 2 | 1 | 6 | -2.3 | / | 1
CC1(C)O[C@@H]2[C@H](O1)[C@@H](COS(=O)(=O)O)O[C@H]2n1c(=S)[nH]c2c(=O)[nH]c(N)nc21 | i | -2.0 | 2.1 | -1 | 7 | 23 | 12 | / | /
CC(NC(=O)C1CCN(S(=O)(=O)c2cccc3nonc23)CC1)c1ccccc1 (stereo unspecified) | i | 0.2 | 1.0 | 2 | 3 | 9 | 1.5 | 0.69 | 7

No new results follow: 3 of the compounds above.
SMILES | FGF22 binding | HNF4A DNA FP | UCH37 DUB inh | Beta2AR agonist | rRNA inh HTS | rRNA inh HTS OD600 | rRNA inh HTS RFP | Ecoli growth | ALR inh
Nc1ccc(C(=O)N/N=C/c2cn(Cc3ccc(F)cc3)c3ccccc23)cc1 | i | -2.1 | / | 2 | 1 | 6 | -2.3 | / | 1
CC1(C)O[C@@H]2[C@H](O1)[C@@H](COS(=O)(=O)O)O[C@H]2n1c(=S)[nH]c2c(=O)[nH]c(N)nc21 | i | -2.0 | 2.1 | -1 | 7 | 23 | 12 | / | /
CC(NC(=O)C1CCN(S(=O)(=O)c2cccc3nonc23)CC1)c1ccccc1 (stereo unspecified) | i | 0.2 | 1.0 | 2 | 3 | 9 | 1.5 | 0.69 | 7

Later entries
SMILES | FGF22 binding | HNF4A DNA FP | UCH37 DUB inh | Beta2AR agonist | rRNA inh HTS | rRNA inh HTS OD600 | rRNA inh HTS RFP | Ecoli growth | ALR inh
Cc1cccc(NC(=O)CSc2nc(COc3ccccc3)nc3ccccc23)c1C | / | 9.2 | 2.5 | 3 | / | / | / | 0.74 | -8
COc1ccc(C(C)=O)cc1CSCc1cc(C(C)=O)ccc1OC | i | -1.4 | 5.3 | -10 | -2 | 1 | 4.5 | 0.68 | 19
O=c1[nH]c(SCc2ccc(F)cc2)nc2c1cnn2-c1ccc(F)cc1 | i | -3.5 | 6.0 | 2 | 9 | 7 | 1.7 | 0.77 | 0
O=c1c(=O)n(O)c2ccccc2n1O | / | 3.9 | 2.4 | -7 | / | / | / | 0.66 | -8
COc1ccc(OC)c(C=C2CCc3ccccc3C2=O)c1 | i | -3.0 | / | / | -25 | -41 | -11 | / | /
O=C(NCc1ccc(F)cc1)C1CCN(S(=O)(=O)N2CCCC2)CC1 | i | 7.0 | -1.1 | 3 | 1 | 7 | -2.2 | 0.67 | -2
S=c1[nH]nc(C2CCCCC2)n1/N=C/c1ccccc1Cl | i | 4.9 | / | -6 | -3 | 3 | -0.2 | / | /
CCCC(=O)C1=C(SCC)CC(C)(C)C(C(=O)OC)C1=O (stereo unspecified) | / | 2.8 | 6.9 | 3 | / | / | / | 0.69 | -3
CCOC(=O)c1cc(-c2cccs2)nc2c1c(C)nn2-c1ccccn1 | i | 4.0 | -120 | 5 | 9 | 7 | 9.4 | 0.67 | /
C=CCn1c(SCC(=O)Nc2cc(C)on2)nc2sc(C)c(C)c2c1=O | / | 0.1 | / | 6 | / | / | / | / | -2
CCC(=O)N1CCC2(CC1)Oc1ccc(Cl)cc1C(=O)C21CC(c2cccnc2)=NO1 (stereo unspecified) | i | -1.7 | -0.5 | -15 | 11 | 10 | 7.7 | 0.67 | 3
C#CCSc1nnnn1-c1cccc(Cl)c1 | i | -0.8 | 1.1 | 0 | 20 | 11 | 3.7 | 0.68 | /
COc1ccc(S(=O)(=O)N2CCOC2CNC(=O)C(=O)NCCCN2CCOCC2)cc1C (stereo unspecified) | i | -1.2 | 4.4 | 1 | 6 | 6 | 0.1 | 0.69 | -11
CCCc1cc(=O)[nH]c(SCC(=O)N2CCN(S(=O)(=O)c3ccc(C)cc3)C2)n1 | i | -0.6 | 2.1 | 16 | -5 | -9 | -2.8 | 0.76 | -7
Cn1cc([N+](=O)[O-])cc1-c1nc2ccccc2n1C | i | 0.4 | 4.1 | -3 | 9 | 2 | 3.2 | 0.66 | 1
O=C(c1cccc(Cl)c1)N1CCN(Cc2ccncc2)CC1 | / | -1.3 | -2.5 | -3 | / | / | / | 0.78 | /
Cc1cccc(NC2=C(NC(=O)c3ccccc3)C(=O)c3ccccc3C2=O)c1 | / | -2.7 | 52* | -3 | / | / | / | / | -7
CCOC(=O)[C@H]1[C@H]2COc3ccc(OC)cc3[C@@H]2N2C(=O)c3ccc(Cl)cc3NC(=O)[C@@]12C | i | -0.7 | 6.6 | -4 | -13 | -16 | -12 | / | /
CCSc1nnc(NC(=O)c2ccccc2)s1 | i | -0.3 | 3.4 | 10 | 3 | 2 | -3.9 | 0.66 | -1
O=c1[nH]c2ccc(S(=O)(=O)N3CCCCC3)cc2o1 | i | 2.6 | 1.1 | 7 | 12 | 4 | -0.3 | 0.67 | 18
CC12CCC(C(=O)NC3CCCCC3)([C@H](Br)C1=O)C2(C)C (stereo partly specified) | i | 0.0 | 3.7 | 0 | -7 | -2 | 0.7 | 0.68 | -11
O=C(CSc1ccc(C(F)(F)F)cc1[N+](=O)[O-])Nc1ccc2ccccc2c1 | i | -1.2 | 2.4 | 1 | 23 | 8 | 4.4 | 0.68 | 99*
Cc1sc(NC(=O)C(C)C)c(C(=O)Nc2ccccc2)c1C | / | -2.3 | 3.5 | -9 | / | / | / | 0.74 | 9
COC(=O)c1ccc(NC(=O)CSC2=NC(=O)C(c3ccccc3)C(=O)N2)cc1 (stereo unspecified) | / | 2.3 | 6.1 | -5 | / | / | / | 0.7 | 99*
CCOC(=O)c1cccc(NC(=O)CCc2nnc3ccc(N4CCCCC4)nn23)c1 | i | 3.5 | -0.7 | -1 | -5 | 4 | -1.3 | 0.69 | 1
O=C(CN1CCN(S(=O)(=O)c2ccc(Br)cc2)CC1)Nc1ccc(F)cc1F | / | -5.3 | 2.8 | -6 | / | / | / | 0.76 | /
CC(C)COc1cccc(-c2cc(C(=O)N/N=C/c3ccncc3)c3ccccc3n2)c1 | i | 1.3 | / | 51* | 15 | 3 | 2.8 | / | -7
CCN(Cc1ccccc1)C(=O)CCS(=O)(=O)c1ccc2c(c1)n(C)c(=O)c(=O)n2C | i | 0.4 | -2.1 | 2 | -6 | 0 | 3.9 | 0.74 | -4
Cc1cccc(-n2c(SCc3cc(=O)n4ccsc4n3)nc3ccccc3c2=O)c1 | / | -0.3 | 5.9 | -4 | / | / | / | 0.82 | -28
COCCN(C(=O)CSc1nnc(-c2cccs2)n1N)c1c(N)n(Cc2ccccc2)c(=O)[nH]c1=O | i | 4.3 | 1.3 | -3 | 3 | 3 | -0.3 | 0.69 | 0
CC(=O)[C@H]1[C@@H]2C(=O)N(c3cccc(Cl)c3)C(=O)[C@@H]2[C@H]2c3ccccc3C=CN21 | / | 4.6 | 40* | 0 | / | / | / | 0.76 | -17
C=CCOc1cccc(C(=O)N2CCC(CCC(=O)NC3CC3)CC2)c1 | i | 4.3 | 1.2 | -3 | 4 | 12 | 0.9 | 0.69 | -5
CC(C)(C)NC(=O)C(c1cccs1)N(Cc1cccs1)C(=O)c1ccc(CN2CCOCC2)o1 (stereo unspecified) | i | -2.1 | 3.3 | -1 | -1 | -5 | 2.8 | 0.66 | 3
Cc1ccc(S(=O)(=O)n2nc(OC(=O)C3CCCCC3)cc2N)cc1 | / | -2.0 | 1.4 | 0 | / | / | / | 0.72 | -4
C/C(=N/NC(=O)CNC(=O)/C=C/c1ccco1)c1ccc(Cl)cc1 | i | -1.6 | / | -2 | 2 | -5 | -4.1 | / | 8
O=c1c(-c2ccc(F)cc2)coc2c3c(ccc12)OCCO3 | / | -1.4 | 6.9 | -13 | / | / | / | 0.69 | -1
CC(C)n1cc(CN2CCC(C(=O)Nc3cccc(-c4cscn4)c3)CC2)cn1 | i | 1.9 | 2.5 | 5 | 0 | 5 | -0.5 | 0.68 | 30
Cc1ccc(Cl)cc1-n1c(=O)cc(N2CC(C)OC(C)C2)[nH]c1=O (stereo unspecified) | / | -0.5 | -0.3 | 8 | / | / | / | 0.74 | 17
CC(C)(C)NC(=O)NC(=O)CSc1ccc(S(=O)(=O)N2CCCCC2)cn1 | i | -2.7 | 3.2 | -3 | -4 | -7 | 1.3 | 0.7 | -4
CN(C)S(=O)(=O)c1ccc(S(=O)(=O)NCCN2CCOCC2)cc1 | i | 1.0 | 2.3 | 2 | 0 | 1 | -1.5 | 0.65 | -17
Cc1ccc(C(=O)NC2CCN(C(=O)N3CCOCC3)CC2)cc1 | / | -1.8 | 0.2 | 6 | / | / | / | 0.71 | /

This is a subset; the hit share may differ from the screen's.
